# Screening results as filed in PubChem.
# BJeLR viability: MLPCN primary cell-based screen for lethality selective to Ras in HRASV12 cells; AID 1554, 2009; BJeLR (HRASV12) viability, CellTiter-Glo ATP luminescence, 48 h; reference of the scale not given here; hit rate 0.17% among 300,000; inhibition, % (no concentration beside the values);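 active means replicate mean above 50%; inconclusive means above 50% but judged a plate artefact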;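 further: 50 nL library stock added to about 25 µL; numbers are from one replicate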
# Bead autofluor: counter-screen for toxin protease inhibitors: compound fluorescence; compound autofluorescence counterscreen, microsphere flow cytometry; stronger effect = higher value; fluorescence intensity (no concentration beside the values); hit rate 3.1% among 360,000; AID 624483;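 active means at least 3 SD above the mean of all compounds, about 16000 in these data; inconclusive means too few beads counted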;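 further: 100 nL of 1 mM stock went into each well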
# Sa ugtP lethal: growth inhibition of ugtP-null S. aureus, primary screen, RN4220 ugtP deletion, OD600 | 16 h; some inactives read as strong as hits | growth inhibition, % (concentration not given with the values) | hit rate 0.54% among 330,000 | AID 1259309, 2017;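 active means z-score under -3 and OD600 up to 0.15 on both plates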;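 further: plate controls were untreated wells for no effect and antibiotic for full effect; wells of about 80 µL received 100 nL stock; the first replicate is given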
# Sa RN4220 lethal: growth inhibition of S. aureus RN4220, primary screen, OD600 | AID 1259311, 2017 | hit rate 0.33% among 330,000 | 16 h | inhibition, % (test concentration not listed);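 active means z-score of -3 or lower and OD600 up to 0.18 on both plates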;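 further: plate controls were untreated cells for no effect and reference antibiotic for full effect; stock transfer was 100 nL into about 80 µL; one replicate is shown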
# PrP 5UTR inh: inhibition of PrP 5' UTR reporter expression; cell-based PrP 5' UTR mRNA reporter, plate reader; inhibition, % (test concentration not listed); hit rate 0.35% among 340,000;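 active means every replicate at 50% or more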;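 further: 0 = median of the neutral control wells; tested in H4 reporter cells; numbers are from one replicate; inactives centre near -14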
# Mtb hypoxia rep: PubChem AID 1159583. M. tuberculosis hypoxia-regulated fluorescent reporter, fluorescence. fluorescence inhibition, % (test concentration not listed). hit rate 0.1% among 300,000;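 active means 35 to 45% if threefold the growth effect, above 45% if 1.5-fold the growth effect; inactive means the rest, general growth blockers included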;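 further: wells of about 50 µL received 100 nL stock; 0% = vehicle wells and 100% = reference inhibitor wells; whole bacteria with a GFP reporter of the hypoxia response; strong numbers were not always called active; many hits fall short of the cut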
# Mtb hypoxia rep growth: second read-out of Mtb hypoxia rep, no call of its own (marks repeat the call); growth inhibition, %; measured here: M. tuberculosis growth (absorbance);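 0% = vehicle and 100% = reference antibiotic; read after six days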
# * marks the source's active call; other numbers are inactive results; ? = inconclusive; / = not tested or not shown.
SMILES,BJeLR viability,Bead autofluor,Sa ugtP lethal,Sa RN4220 lethal,PrP 5UTR inh,Mtb hypoxia rep,Mtb hypoxia rep growth
O=C(NCc1ccccc1)C(=O)NCC1OCCN1S(=O)(=O)c1ccc2c(c1)OCCO2 (stereo unspecified),9,5931,-6,-8.0,40,2,5
CCOc1ccc(S(=O)(=O)N2CCOCC2)cc1[N+](=O)[O-],7,4845,5,9.0,-22,18,4
Cc1c(NC(=O)C(CC(=O)O)NCc2ccco2)c(=O)n(-c2ccccc2)n1C (stereo unspecified),2,3122,-2,-13,-3,18,14
CS(=O)(=O)N1CCCC(C(=O)Nc2ccccc2F)C1 (stereo unspecified),10,4027,2,2.1,-13,0,-3
Cc1ccc(C)c(NS(=O)(=O)c2ccc(-c3ccc(=O)[nH]n3)o2)c1,-2,4635,11,5.5,2,1,-1
Cc1c(C=NNC(=O)C2(C)CC2(Cl)Cl)cnn1C (stereo unspecified),/,/,4,3.8,/,1,0
N#Cc1cc(S(=O)(=O)N2CCOCC2)ccc1N1CCOCC1,7,4616,-5,1.2,5,2,0
COc1cc(C)c(S(=O)(=O)NCCCn2ccnc2)cc1C,5,3176,5,0.8,-28,-1,12
Cc1cc(OCc2cc(C(=O)NCc3cc(C(C)C)no3)no2)cc(C)c1Cl,-3,5376,6,1.2,-80,4,-1
CC(=O)Nc1ccc(S(=O)(=O)N2CCC(C(=O)NCCC(=O)NCc3ccccc3)CC2)cc1,4,5132,4,4.0,-27,4,1
O=C(CSc1nncn1-c1ccccc1)NC1CCCCC1,9,5088,7,4.8,-3,1,-1
CN(C)C(CNC(=O)C1CCCN1C(=O)c1cccs1)c1ccccc1 (stereo unspecified),/,3730,3,-0.2,/,12,-2
O=c1cnnc(Nc2cccc(C(F)(F)F)c2)[nH]1,9,4197,9,5.7,-16,-3,3
O=C(NN1C(=O)C2C3C=CC(C3)C2C1=O)C(O)c1ccccc1 (stereo unspecified),4,4092,2,2.9,-39,11,0
COc1cc(C)c(NC(=O)Cc2ccsc2)cc1OC,-6,5723,-7,3.8,-13,16,0
Cn1c(=NC(=O)CCS(=O)(=O)c2ccccc2)sc2cc(F)ccc21,1,?,0,0.4,14,0,9
CC(=O)c1ccc(NC(=O)CCNS(=O)(=O)c2cccc3nonc23)cc1,-8,9020,-5,-2.5,-16,6,1
Cc1ccnn1-c1ccc(C(=O)OCC(=O)Nc2ccc(F)cc2)cc1,/,7059,-2,5.4,-33,0,8
COc1ccc(CN2CCCC(N3CCN(c4ccc(OC)cc4)CC3)C2)cc1 (stereo unspecified),2,/,6,2.6,-3,2,-4
CCn1c(-c2ccc(Cl)cc2)n[nH]c1=S,2,5378,0,5.6,-16,2,12
COc1ccc(CNS(=O)(=O)CCNC(=O)c2cccc(OC)c2)cc1,14,4994,/,/,-10,/,/
Cc1nc2c(c(C)nn2-c2ccccc2)c(C)c1C,-5,5669,20,7.1,-24,17,8
CC(O)CNc1nc2ccccc2n1CC(=O)NC12CC3CC(CC(C3)C1)C2 (stereo unspecified),4,3057,6,-6.5,-22,-15,5
CCN(CC)C(=O)c1sc(N)c(C#N)c1C,9,3520,3,7.2,-9,9,3
COC(=O)CCC(=O)Nc1ccc(S(=O)(=O)Nc2nc(C)cc(C)n2)cc1,1,3356,1,-0.4,-73,3,0
COC(=O)c1ccc(N(CC(=O)NC2CCCC2)C(=O)c2ccc(C)s2)cc1,-1,5841,-1,-2.3,4,-6,12
Cc1ccccc1OCCC(=O)OCC(=O)NNC(=O)c1cccs1,/,2778,5,5.5,-9,5,-2
O=S(=O)(NC1CCCC1)c1ccccc1Cl,-2,20825*,-10,2.2,-8,1,3
Cc1c(N(C)S(=O)(=O)c2cc(C(=O)NCC3CCCO3)ccc2Cl)c(=O)n(-c2ccccc2)n1C (stereo unspecified),0,4685,-7,3.3,-5,6,2
CCOc1ccc(-c2nc(C#N)c(N3CCOCC3)o2)cc1,2,4197,19,6.0,-21,3,5
COCC(=O)Nc1cc(C(=O)Nc2cccc(C)c2C)ccc1Cl,-9,9239,-2,9.3,-23,6,6
CCN(CC)CCNC(=O)c1ccccn1,-2,4607,4,-1.6,-2,/,/
CC1(C)Cc2ccccc2C(NNC(=O)c2ccncc2)=N1,-8,4494,5,3.6,-13,/,/
COc1ccc(C(=O)Nc2cc(OC)c(NC(=O)c3ccco3)cc2OC)cc1,-7,12826,-16,7.0,-41,-2,-6
Cc1ccc(NC(=O)Cc2nc(COC(=O)c3c(F)cccc3Cl)cs2)cc1,/,/,-2,-1.9,/,5,-6
CCCCn1c(NCc2ccccc2NS(=O)(=O)c2ccc(C)cc2)nc2ccccc21,2,2192,5,-0.7,-11,/,/
COc1cc(NS(=O)(=O)c2ccc(NC(=O)CCC(=O)O)cc2)nc(OC)n1,-16,3981,2,-0.9,-33,3,2
O=C(CCN1C(=O)c2ccccc2S1(=O)=O)Nc1ccc(F)c([N+](=O)[O-])c1,-5,5849,5,2.6,-18,-1,2
CCNC(=S)N(Cc1ccc2c(c1)OCO2)C1CC(=O)N(c2ccc(F)cc2)C1=O (stereo unspecified),3,2690,-13,3.8,-9,/,/
CCCCCCn1c(O)c(C=NC2CCCCC2N)c(=O)[nH]c1=O (stereo unspecified),-2,/,8,9.4,/,8,1
COc1ccc(OCC(O)Cn2c(N3CCCCC3)nc3c2c(=O)n(C)c(=O)n3C)cc1 (stereo unspecified),-8,/,2,2.1,-18,1,-5
NS(=O)(=O)c1ccc(CCNC(=O)CSCC(=O)Nc2ccc(Cl)cc2)cc1,/,6478,6,3.9,-19,-5,-4
N#C/C(=C\C=C\c1ccccc1[N+](=O)[O-])C(=O)NCc1ccccc1,31,5811,-4,8.4,-16,18,1
CC1CCCCN1C(=O)/C(=C\c1ccccc1)c1ccccc1 (stereo unspecified),6,21700*,12,9.1,-10,6,8
COc1cccc(NC(=O)C/C(C)=N/NC(=O)C2CCCCC2)c1,-7,4863,/,/,-19,/,/
Cn1c(SCc2nnc3n2CCCCC3)nc2ccccc21,-3,9694,-8,1.5,-5,2,-2
O=c1nc(-c2ccccc2)nc(-c2ccccc2)[nH]1,11,3551,-1,-0.2,-17,10,-1
C[C@H](CO)N1C[C@H](C)[C@H](CN(C)Cc2ccc(Oc3ccccc3)cc2)Oc2ccc(NC(=O)Nc3cccc4ccccc34)cc2CC1=O,/,4144,-17,-15,-11,4,8
COCCCNC(=O)CN1CCN(Cc2ccc(Cl)cc2)C1=O,3,5497,-3,1.2,-41,4,7
CC(C)CC(NC(=O)OC(C)(C)C)C(=O)NC(C(=O)NC(C)C(N)=O)C(C)C (stereo unspecified),-2,9577,6,6.1,-29,-2,5
CC(C)Cn1c(N)c(C(=O)COC(=O)Cc2cccs2)c(=O)n(C)c1=O,-18,5825,4,5.3,-24,0,-14
CC(C)(C)C(=O)Nc1cccc2[nH]ncc12,-11,3445,4,5.8,-15,4,-1
CCCCC1CCC(c2nc(-c3cccnc3)no2)CC1 (stereo unspecified),-3,5434,62,6.1,-29,/,/
C=C1CSc2nc(=O)c3c4c(sc3n21)CCC4,0,?,-9,4.0,-7,43*,20*
CCOc1ccccc1CN1CCN(C2CCC2)CC1CCO (stereo unspecified),3,4109,2,2.2,-47,6,11
COc1ccc(Nc2cc(C)nc3c(C)cccc23)cc1OC,5,3547,-1,3.4,7,11,0
Cc1ccc(Nc2nc(C(=O)NCc3ccco3)cs2)cc1,-7,21266*,-17,15,-30,5,14
O=C(CCSCc1cccc(F)c1)NCCc1ccccc1,11,3220,4,0.4,-16,1,-7
COc1ccc(C(=O)NCC(=O)NCCc2c[nH]c3ccccc23)cc1OC,-2,3698,2,0.6,1,10,6
COc1ccc(Cl)cc1S(=O)(=O)N1CCN(Cc2ccc3c(c2)OCO3)CC1,/,9090,-4,1.5,-17,-5,13
# Continued.
SMILES,BJeLR viability,Bead autofluor,Sa ugtP lethal,Sa RN4220 lethal,PrP 5UTR inh,Mtb hypoxia rep,Mtb hypoxia rep growth
COc1ccc(/C=N/NC(=O)CCc2nc3ccccc3[nH]2)cc1,0,9218,/,/,-20,/,/
COc1ccc2nc(NC(=O)c3cccnc3SC)sc2c1,-2,2576,8,2.7,-67,-6,4
CCN(CC)Cc1c(O)ccc2c(C)c(CC(=O)OC)c(=O)oc12,-3,11593,-3,8.3,-15,-2,6
Cc1nc(-c2ccc(-n3nncc3-c3ccco3)cc2)cs1,7,5082,5,8.6,-28,-10,8
CCOc1ccc(OCCCC(=O)NC2=NCCS2)cc1,9,?,9,2.8,-22,2,3
Cc1c(C(=O)O)oc2ccc3c(c12)C(O)CC(C)(C)O3 (stereo unspecified),6,3750,8,5.6,-86,0,2
O=C1C=C(c2cccc(CO)c2)CC(c2ccc(Cl)cc2)C1 (stereo unspecified),/,/,8,6.6,/,6,-4
O=c1c2ccccc2oc2nc3n(c(=O)c12)CCCS3,3,10295,-3,-1.9,-25,/,/
CC1=CC(C)[C@@H]2COC(c3ccc(O)cc3)[C@H]1C2C (stereo partly specified),-2,3793,/,/,-3,/,/
CCOC(=O)C(Oc1ccc(=O)n(-c2ccccc2)n1)C(C)=O (stereo unspecified),-2,5675,-6,-1.9,-10,-15,-8
NC(=O)c1ccc(NC(=O)COc2cccc3c2CCNC3=O)cc1,1,?,1,0.4,-12,3,4
COc1cc(SC)ccc1C(=O)Nc1cccc(S(=O)(=O)NC2=NCCCCC2)c1,-6,5660,7,8.5,-26,6,-1
O=[N+]([O-])c1ccc(O)c(Nc2ncnc3ccccc23)c1,10,4419,10,6.9,-29,3,-2
Nc1c(C(=O)NCc2ccccc2)nnn1Cc1cccc(Cl)c1,11,6488,-9,3.3,-25,/,/
Cc1ccc2nc(N(CCCN(C)C)C(=O)c3ccc(S(=O)(=O)N4CCOCC4)cc3)sc2c1,5,4369,15,4.7,10,-6,-2
COc1cc(NC(=O)c2ccc3c(c2)OCO3)ccc1NC(=O)C(C)C,-22,9607,-6,-2.6,-8,-12,-3
O=C1c2ccccc2C(=O)N1CN(C(=O)COc1ccc(Cl)cc1Cl)c1cccc(F)c1,2,2128,-4,6.6,-10,6,7
CCC(C)N1CCN(C(=O)COc2ccc3ccccc3c2)CC1 (stereo unspecified),-1,5225,8,-2.0,-24,16,8
COc1cc(OC)cc(C(=O)NC2CCCN(Cc3ccc(Cl)cc3)C2)c1 (stereo unspecified),-8,5471,4,-1.3,-24,7,8
O=C(NC1CC2CCCC(C1)N2Cc1ccco1)NC12CC3CC(CC(C3)C1)C2 (stereo unspecified),-16,4878,6,0.4,-5,19,7
CCC(C)c1ccccc1N1CC(C(=O)Nc2ccccc2N2CCCC2)CC1=O (stereo unspecified),-8,5024,2,2.2,-13,1,5
O=C(CN1CCN(c2ncccn2)CC1)N1CCCC1,2,5010,-7,3.2,-3,-13,-12
Cc1nc2nc(C)c(NS(=O)(=O)c3ccc(Cl)cc3)c(=O)n2[nH]1,-3,4100,5,4.5,-12,9,10
CN(CC(=O)NCc1cccs1)S(=O)(=O)c1cccc2nsnc12,7,4300,0,1.1,-8,6,18
Cc1ccc(C(=O)Cn2nnc3ccccc32)cc1,-2,/,6,9.1,-95,5,4
NC(=S)N/N=C1\c2ccccc2-c2c(C(=O)O)cccc21,11,3657,/,/,-17,/,/
